Screens as filed in PubChem BioAssay.
Marburg entry = inhibitors of Marburg virus binding or entry into cells; Marburg virus pseudotype entry/binding inhibition, cell-based; control for the full effect not named in the record; many of its hits are not listed in these tables; Potency, µM (top dose mostly 49.2 µM), for inactives: top-dose activity change, negative = inhibition, most hits filed as inhibitors; 18,000 compounds, 6.5% hits; AID 720532; active means well fitted inhibition curve with a large enough effect; inconclusive means small, poorly fitted or top-dose-only effect; inactive means no such curve, though single readings can be large or run the other way; tested in HEK293 cells; further: luciferase read-out
LASV entry inh = blocks Lassa virus binding or cell entry | Lassa virus pseudotyped entry inhibition, cell-based qHTS; control for the full effect not named in the record; many of its hits are not listed in these tables | Potency, µM (highest dose often 49.2 µM), inactives show at the top dose activity change, negative = inhibition, hits mostly inhibitors | 18,000 compounds, 4.1% hits | AID 720533; active = well fitted inhibition curve with a large enough effect; inconclusive = small, poorly fitted or top-dose-only effect; inactive = no such curve, though single readings can be large or run the other way; tested in HEK293 cells; further: luciferase read-out
The depositor's hits bear a star; ? = inconclusive; . = no result given; & = joins results of further samples; [ ] = remark or other dose. On the % scale 0 is the no-effect control and ±100 the full control effect; potency means the concentration at half of the fitted maximal effect. This is a subset; rates above refer to the full screens.

Below each SMILES: Marburg entry | LASV entry inh
Cc1nc2cc(NC(=O)[C@@H]3C[C@@H](Sc4ccccn4)CN3Cc3ccccc3C)ccc2s1
 : ? | -6%
CCOC(=O)C1CCCCN1Cc1nc(N2CCN(C(C)=O)CC2)c2ccccc2n1 (stereo not given)
 : -7% | -9%
CC1=CC2C(C)(C)CC(=O)C[C@]2(C)CC1COc1ccc2c(c1)CC(=O)C=C2 (stereo not given in full)
 : 27% | 2%
COC(=O)C1CCN(C2CN(Cc3ccccc3)S(=O)(=O)C2)CC1 (stereo not given)
 : 11% | 8%
CN[C@@H]1[C@@H](O)[C@@H](O[C@@H]2[C@@H](O)[C@H](OC3OC(CN)=CCC3N)[C@@H](N)C[C@H]2N)OC[C@]1(C)O (stereo not given in full)
 : 3%[17.8 µM] | -2%[17.8 µM]
CC(=O)OC1CCC23CC1(C)CCC2C(C)(C)CC3OC(C)=O (stereo not given)
 : 12% | -6%
CCN1C(=O)NC(c2cccc(C(F)(F)F)c2)C(C(=O)OC)=C1C (stereo not given)
 : 23%[8.59 µM] | -4%[8.59 µM]
COC/C=C/C1=CC2=CC(=O)C(C)(OC(=O)CCc3ccccc3)C(=O)C2=CO1 (stereo not given)
 : -1% | -1%
NC(CCP(=O)(O)O)C(=O)O (stereo not given)
 : 34%[activator] | -21%
S=C=Nc1cccc(C2(N3CCCCC3)CCCCC2)c1
 : ? | 14µM*
CCCCCCN1CCN(C2CN(Cc3ccc(F)cc3)S(=O)(=O)C2)CC1 (stereo not given)
 : -20% | 7%
COc1ccc([C@H]2C[C@@H](n3cc(-c4ccc(F)cc4)nn3)[C@H](O)CN2C(=O)c2cccs2)cc1
 : -10% | .
Cc1c(C(=O)N2CCCC(C)C2)sc2ncnc(NCCN3CCCCC3)c12 (stereo not given)
 : ? | -21%
Cc1cccc(CNc2nc(-c3cccc(NS(C)(=O)=O)c3)nc3ccccc23)c1
 : ? | -25%
CC1(C)CC=C(O[Si](C)(c2ccccc2)c2ccccc2)CC1
 : 2% | 2%
COc1cc(Cl)c(CN2CCOc3ccc(CN4CCCCC4CO)cc3C2)cc1OC (stereo not given)
 : ? | 5%
O=Cc1c(Cl)cccc1Cl
 : 3% | -8%
CN(CCOc1ccc(C[C@H](Nc2ccccc2C(=O)c2ccccc2)C(=O)O)cc1)c1ccccn1
 : 18% | -8%
CC(=O)O[C@H]1[C@H]2[C@@H](OC(=O)Cc3ccccc3)[C@@H](C)C[C@]2(OC(C)=O)C(=O)/C(C)=C/[C@@H]2[C@H](CC[C@@]13CO3)C2(C)C
 : -13% | -7%
O=C(NCCCCc1ccccc1)c1cccc(NC(=O)c2ccccc2)c1
 : -14% | -16%
CCC1(c2ccc(O)cc2)NC(=O)NC1=O (stereo not given)
 : 1% | -5%
COc1ccc(CCNc2ncnc3sc(C(=O)N4CCCC4)c(C)c23)cc1OC
 : -3% | -8%
C=C[C@@](C)(O)CC[C@@H]1[C@@]2(C)CCCC(C)(C)[C@@H]2CC[C@@]1(C)O
 : 7% | -11%
CC(C)[C@@H](CC(=O)N[C@@H]1CCCC[C@H]1C(=O)N[C@H](CC(=O)N[C@@H](CCC(=O)O)CC(=O)O)Cc1c[nH]c2ccccc12)NC(=O)C[C@H](Cc1ccccc1)NC(=O)[C@@H]1CNCC[C@H]1N
 : 1% | -14%
COc1ccc(-c2nc3c(c4c2C[C@H](c2ccccc2)OC4)CN(C(=O)Nc2cccc(C#N)c2)CC3)c(C)c1
 : ? | .
CC(C)c1onc(-c2c(Cl)cccc2Cl)c1COc1ccc(/C=C/c2cccc(C(=O)O)c2)c(Cl)c1
 : -12% | ?
C[C@H](CCC(=O)O)[C@H]1CC[C@H]2[C@@H]3[C@H](O)C[C@@H]4C[C@H](O)CC[C@]4(C)[C@H]3C[C@H](O)[C@]12C
 : 19% | -10%
C=CC[C@@H]1C=C[C@@H](Oc2ccc(OC)cc2)[C@H](CO)O1
 : -15%[8.59 µM] | -7%[8.59 µM]
CC(=O)C1=C(C)N(Cc2ccccc2)C(=O)NC1c1cccc(F)c1 (stereo not given)
 : -5%[8.59 µM] | -7%[8.59 µM]
COC(=O)[C@@H]1CC[C@H](C)[C@@H](c2ccc(C)cc2)N1C(=O)c1ccc(C=NO[C@@H](C)c2cn([C@H](CO)Cc3ccccc3)nn2)cc1
 : 5%[8.59 µM] | .
CC(C)C[C@@H](CC(=O)N[C@@H](CCC(=O)O)CC(=O)O)NC(=O)[C@@H]1CCCC[C@H]1NC(=O)C[C@H](CCCN)NC(=O)C[C@H](Cc1c[nH]c2ccccc12)NC(=O)[C@@H]1CCCC[C@H]1N
 : 4% | 2%
C[C@@H](Cc1cccc(C(F)(F)F)c1)NCCCc1ccccc1
 : ? | ?
COc1cc(N2CCN(C(C)C)CC2)ccc1Nc1nc(Nc2cccc(F)c2C(=O)O)c2cc[nH]c2n1
 : -21% | -4%
CC(C)CC(NC(=O)CN)C(=O)NC(Cc1ccccc1)C(=O)O (stereo not given)
 : 13% | 1%
O=C(C(=O)N1CCOc2ccc(CN3CCN(Cc4ccccn4)CC3)cc2C1)c1ccccc1
 : -11% | -17%
CC(=O)c1ccc(Nc2c3ccccc3cc3occc23)cc1
 : ? | ?
COC(=O)C1=C(C)NC(C)=C(C(=O)OCCSc2ccccc2)C1C (stereo not given)
 : ? | 13µM*
O=C(O)[C@@H]1Cc2[nH]cnc2C(c2cccnc2)N1 (stereo not given in full)
 : 17% | -12%
CCCCCCNC(=O)n1cc(F)c(=O)[nH]c1=O
 : -19% | ?
CC(C)=CCN1C(=O)[C@]2(O[C@H](C)CC3=CCCC32)c2c(Br)cccc21 (stereo not given in full)
 : 3%[8.59 µM] | 0%[8.59 µM]

(listing goes on)
structure,Marburg entry,LASV entry inh
O=S(=O)(NCc1ccccc1)c1ccc(F)cc1Br,41%,26%
C[C@@H]1CC[C@H]2C(=O)N(Cc3cccc([N+](=O)[O-])c3)C[C@@H](O)CN2[C@@H]1c1ccc(Br)cc1,-13%[8.59 µM],-10%[8.59 µM]
COC1=C[C@H](C(=O)NCc2ccccn2)[C@@]2(C)Cc3ccccc3[C@@H]2CC1=O,-29%[8.59 µM],7%[8.59 µM]
Cn1cnc2c(NC3CCCC3)ncnc21,15%,8%
C[C@@H]1CC[C@H]2C(=O)O[C@@H](Cc3ccccc3)CN2[C@@H]1c1ccc(Br)cc1,7%[8.59 µM],12%[8.59 µM]
CN(C)Cc1ccccc1-c1cncnc1NC1CC1,-19%,1%
COC(=O)[C@H]1[C@H]2C[C@@H]3c4[nH]c5cc(OC)ccc5c4CCN3C[C@H]2C[C@@H](OC(=O)COc2ccc(OC)cc2)[C@@H]1OC,-9%,?
[O]=[Cd],7%,-7%
COc1cc(-c2coc3cc(OC)c(OC)c(OC)c3c2=O)cc(OC)c1OC,2%,-11%
CN(CCO)C(=O)c1cn(C2CCCN(Cc3cc4ccccc4s3)C2)nn1 (stereo not given),-4%,-1%
CC(O)(COc1ccccc1)c1ccc2c(c1)CN(Cc1ccc3nsnc3c1)CCO2 (stereo not given),?,-19%
O=C(c1noc2c1CCCC2)N1CCOc2ccc(CN3CCN(c4ccccn4)CC3)cc2C1,-3%,-4%
N[C@@H](Cn1oc(=O)[nH]c1=O)C(=O)O,14%&-7%,?
CC(C(=O)O)c1ccc(N2Cc3ccccc3C2=O)cc1 (stereo not given),?,-23%
CC(C)Oc1ccc(C(=O)NCC2Cc3cc(F)cc(-c4cnccn4)c3O2)cc1 (stereo not given),8%,-1%
COC(=O)C(C)CCCC(C)CCCC(C)CCCC(C)C (stereo not given),34%[activator],-5%
CC(C)=CCOc1c2occc2cc2ccc(=O)oc12,3%,-6%
CC(Oc1ccccc1)C(=O)NC1C(=O)N2C(C(=O)O)C(C)(C)S[C@@H]12 (stereo not given in full),2%,-5%
COC(=O)C1=CO[C@@H](C)[C@@H]2CN3CCc4c([nH]c5cc(OC)ccc45)[C@@H]3C[C@H]12,-12%,1%
C=C(CCN1C=C(C(C)=O)C(c2ccccc2)NC1=O)c1ccc(OC)cc1 (stereo not given),12%[8.59 µM],0%[8.59 µM]
COC(=O)C(C(=O)OC)c1ccccc1[N+](=O)[O-],17%,-1%
COc1cccc(CNC(=O)c2cnn(-c3ncc4c(n3)-c3ccccc3CCC4)c2C)c1OC,16%,59%[activator]
COc1ccc2c(c1)O[C@@H](c1cccc(C(F)(F)F)c1)[C@H](OC(=O)NS(=O)(=O)c1ccc(C)cc1)C2=O,22%,-22%
COc1cccc(CNc2ncnc3sc(C(=O)N4CC5CCC4C5)c(C)c23)c1OC (stereo not given),55%[activator],-10%
CC(=O)N(CC(C)C(=O)O)c1c(I)cc(I)c(N)c1I (stereo not given),4%[17.8 µM],4%[17.8 µM]
CCCCC/C=C\C[C@H](O)/C=C/C=C/C=C/[C@@H](O)CCCC(=O)O,2%,7%
CC#CCOC(=O)C1=CCCN(C)C1,?,-10%&-4%
CC(C)[C@@H](CO[Si](C)(C)C(C)(C)C)N1C[C@@H](N2CCCC2)CS1(=O)=O,?,-11%
O=[N+]([O-])c1ccc(-c2[se]c3ccccc3c2I)cc1,5%,-5%
C[C@]1(C(=O)O)CCC[C@]2(C)c3cc(O)ccc3CC[C@@H]12,-13%,1%
O=C(Nc1ccc(Oc2ccc3nc(NC(=O)c4ccco4)[nH]c3c2)cc1)Nc1cc(C(F)(F)F)ccc1F,?,?
CCC1CN(CC(=O)NC(c2ccccn2)C(F)(F)F)Cc2cc(OC)ccc2O1 (stereo not given),-6%,-28%
COCc1c(C(=O)NC2CCCCC2)cnn1-c1nccc(-c2ccccc2OC)n1,-2%,17%
CCS(=O)(=O)NCc1c(C)ncc2c1CCN(C(=O)c1ccc(F)cc1)C2,29%,-12%
C[C@@H]1O[C@@H](O[C@H]2[C@H](Oc3cc(O)c4c(c3)O[C@H](c3ccc(O)cc3)CC4=O)O[C@H](CO)[C@@H](O)[C@@H]2O)[C@H](O)[C@H](O)[C@H]1O,11%,-4%
CCOc1cc(N)c(Cl)cc1C(=O)NCC1CN(Cc2ccc(F)cc2)CCO1 (stereo not given),11%&17%,-1%&-5%
COc1ccc(OCC2CN(C3CCCC3)S(=O)(=O)CCO2)cc1 (stereo not given),9%,-19%
COc1ccc(CN2CCCC(n3cc(C(=O)NC4CCCC4)nn3)C2)c(O)c1 (stereo not given),-10%,-26%
CCCCCCCC/C=C\CCCCCCCC(=O)N[C@H](CO)Cc1ccc(O)cc1,?,14µM*
N#Cc1ccc2c(c1)C[C@]1(CCCCN3C(=O)c4ccccc4C3=O)Oc3cc(-c4ccccc4)oc(=O)c3[C@H]2O1,21%[8.59 µM],13%[8.59 µM]
C=C[C@@]1(C)CC(=O)[C@@]2(O)[C@@]3(C)[C@@H](O)CCC(C)(C)[C@@H]3[C@H](OC(=O)CCN(C)C)[C@H](OC(C)=O)[C@@]2(C)O1,2%,-21%
Cn1cnc2c(ncn2[C@@H]2O[C@H](CO)[C@@H](O)[C@H]2O)c1=N,10%,8%
Cc1cc(C)n(-c2ccc(C(=O)NCC3Cc4cc(-c5cnccn5)ccc4O3)cc2)n1 (stereo not given),-29%,-11%
CN1CCc2ccccc2Cc2[nH]c3ccccc3c2CC1,7%,-20%
CCCSc1cc(OC)c(CCN)cc1OC,22µM*,?
NCCC[C@@H](CC(=O)N[C@@H]1CCCC[C@H]1C(=O)N[C@H](CC(=O)N[C@@H](CCC(=O)O)CC(=O)O)Cc1ccccc1)NC(=O)C[C@H](Cc1ccccc1)NC(=O)[C@@H]1CCCC[C@H]1N,-8%,-3%
COC(=O)[C@@H]1CCCN1C(=O)c1c(OC)cc(=O)n2c1CCN(Cc1c(C)[nH]c3ccccc13)CC2,9%,-6%
C/C(=C\CO)CCC(C)CCCC(C)CCCC(C)C (stereo not given),3%,-5%
CN[C@@H]1[C@H](O[C@H]2[C@H](O[C@H]3[C@H](O)[C@@H](O)[C@H](N=C(N)N)[C@@H](O)[C@@H]3N=C(N)N)O[C@@H](C)[C@]2(O)C=O)O[C@@H](CO)[C@H](O)[C@H]1O,23%,-7%
O=C(O)/C=C\CO,3%,-6%
